# Source: PubChem (National Center for Advancing Translational Sciences (NCATS))
# TRPML1 ag: human mucolipin-1 channel agonism; Q9GZU1; TRPML1-expressing cells, Ca2+ dye fluorescence, FDSS; host cell line not named in the record; reference of the full effect not given here; activation, % (test concentration not listed); hit rate 0.12% among 410,000; AID 624414; in the data active = activation above about 50%; inconclusive = about 30% to 50%; inactive = below about 30%; further: 0% is about no effect; the text of the record puts the active cut at 80%
# Target sequence (Q9GZU1 whole entry, looked up): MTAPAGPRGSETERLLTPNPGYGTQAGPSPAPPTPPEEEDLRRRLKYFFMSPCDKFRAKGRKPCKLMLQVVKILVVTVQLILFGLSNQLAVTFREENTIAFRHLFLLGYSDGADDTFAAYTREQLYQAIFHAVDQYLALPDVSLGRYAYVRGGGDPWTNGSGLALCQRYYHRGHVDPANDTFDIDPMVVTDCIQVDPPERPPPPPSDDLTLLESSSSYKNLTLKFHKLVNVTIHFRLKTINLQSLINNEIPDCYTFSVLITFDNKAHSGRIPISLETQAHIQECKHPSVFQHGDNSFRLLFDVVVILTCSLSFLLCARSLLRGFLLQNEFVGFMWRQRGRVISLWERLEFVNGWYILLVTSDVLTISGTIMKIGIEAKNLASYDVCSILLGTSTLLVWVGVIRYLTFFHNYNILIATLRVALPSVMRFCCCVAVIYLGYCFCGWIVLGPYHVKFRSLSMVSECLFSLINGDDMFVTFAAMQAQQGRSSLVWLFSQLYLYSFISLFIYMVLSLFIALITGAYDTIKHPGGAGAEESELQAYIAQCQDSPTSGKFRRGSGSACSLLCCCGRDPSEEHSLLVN
#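 Kinetic FDSS Ca2+ read in Tet-induced TRPML1-DL cells (ABD Ca8 dye plus quencher, 45-90 min RT loading): baseline, then compound, then 110 s agonist window; EC80 agonist 54-4 at 4uM final added afterwards for a 110 s antagonist window.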
# D2 agonist: human D2 receptor agonism in beta-arrestin assay. DiscoveRx PathHunter D2 beta-arrestin, luminescence, 90 min; 100% = 57 uM dopamine signal. activation, % (concentration not given with the values). hit rate 0.084% among 360,000. AID 624465; in the data active = activation above about 40%; inconclusive = about 15% to 40%; inactive = below about 15%; further: compound concentration not given in the record; the text of the record calls up to 30% inactive
# Target sequence (P14416 whole entry, looked up): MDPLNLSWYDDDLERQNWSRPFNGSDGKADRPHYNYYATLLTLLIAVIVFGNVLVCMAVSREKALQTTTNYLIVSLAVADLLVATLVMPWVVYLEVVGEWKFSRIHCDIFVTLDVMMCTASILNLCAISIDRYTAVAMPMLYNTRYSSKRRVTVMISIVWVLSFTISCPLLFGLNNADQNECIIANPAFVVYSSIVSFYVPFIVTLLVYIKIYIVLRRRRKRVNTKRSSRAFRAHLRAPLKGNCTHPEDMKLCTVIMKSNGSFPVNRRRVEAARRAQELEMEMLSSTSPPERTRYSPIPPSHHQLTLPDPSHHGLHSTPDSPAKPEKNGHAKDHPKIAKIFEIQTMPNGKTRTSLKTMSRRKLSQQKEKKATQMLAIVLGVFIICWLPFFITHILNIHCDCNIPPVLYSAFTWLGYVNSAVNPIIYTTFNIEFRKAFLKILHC
#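 DiscoveRx PathHunter D2 beta-arrestin cells (2,100/well) attached overnight, then compound-stimulated 90 min at 37 C in HBSS/10 mM HEPES/0.1% Tween-20 buffer; beta-galactosidase complementation read by luminescence after 1 h at ambient temperature. Dopamine 57 uM final (EC100) as control.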
# Six1-Eya2 blk: blocks human Six1 binding to Eya2. Q15475+O00167. AlphaScreen GST-Six1/His-Eya2 binding, biochemical; hits give low values; control for the full effect not named in the record. activity change, % (no concentration beside the values). hit rate 0.56% among 360,000; in the data active = activity change below about -65%; inconclusive = about -30% to -65%; inactive = above about -30%; further: on the % scale 0 is the no-effect control and ±100 the full control effect; compound concentration not given in the record
#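 AlphaScreen luminescence read after one hour at 37 °C in darkness. Pin-transferred compounds met GST-Six1 and His-Eya2 protein (5X stock 250 nM/500 nM) plus glutathione donor and Ni-chelate acceptor beads (5X, 50 ug/mL).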
# CtBP-E1A inh: blocks the CtBP interaction with E1A; AlphaScreen GST-E1A/His-CtBP binding, 1536-well; hits give low values; control for the full effect not named in the record; activity change, % (concentration not given with the values); hit rate 0.49% among 340,000; AID 651724; in the data active means activity change below about -65%; inconclusive means about -30% to -65%; inactive means above about -30%; further: on the % scale 0 is the no-effect control and ±100 the full control effect
#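 Homogeneous bead-based format: GST-tagged E1A captured on glutathione donor beads, His-tagged CtBP on nickel acceptor beads; compounds precede bead addition by 2 h at 37 °C.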
# TRPML1 inh: human mucolipin-1 channel inhibition | AID 624415 | Q9GZU1 | hit rate 0.02% among 390,000 | activity change, negative = inhibition, % (test concentration not listed) | TRPML1-inducible cells, Ca2+ dye fluorescence, FDSS; hits give low values; inhibition of EC80 agonist-evoked calcium signal; in the data active means activity change below about -50%; inconclusive means about -30% to -50%; inactive means above about -30%;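 further: stimulus is agonist 54-4 at its EC80 concentration; on the % scale 0 is the no-effect control and ±100 the full control effect; compound concentration not given in the record; the text of the record puts the active cut at -80%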
#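 Calcium fluorescence in TRPML1-DL cells induced overnight with Tet: a 110 s read after compound pin addition, then a 110 s antagonist read after challenge with 54-4 at 4 uM final (EC80).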
# PINK1 expr mod: modulators of PINK1 expression | PINK1 immunofluorescence, high-content cytometry, 24 h | Potency, µM (highest dose often 76.6 µM), inactives show at the highest dose activation (PINK1 increase), most hits filed as activators | hit rate 0.2% among 410,000; active = well fitted activation curve with a large enough effect; inconclusive = small, poorly fitted or top-dose-only effect; inactive = flat fitted curve, though single readings scatter; cell line not stated here;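 further: potency means the concentration at half of the fitted maximal effect; % of control where 0% means no effect; nearly all actives have a fitted effect of over 65% in size; a mitochondrial uncoupler was the plate control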
#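 Decision-based qHTS: stable cells, 24 h exposure to five compound concentrations, CCCP as control. Fixed cells stained for PINK1 plus nuclear, mitochondrial and cell markers, cytometer read.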
# * = called active by the depositor; ? = inconclusive; . = no result given; & = joins results of further samples; [ ] = dose if it differs, or a comment.
Structure	TRPML1 ag	D2 agonist	Six1-Eya2 blk	CtBP-E1A inh	TRPML1 inh	PINK1 expr mod
CN1CCN(C2=C(NS(=O)(=O)c3cccs3)C(=O)c3ccccc3C2=O)CC1	0.2	9.1	-13	-23	16	1.9%
CCNC(=O)C(=O)N/N=C/c1cc([N+](=O)[O-])ccc1O	-0.7	0.5	-92*	-94*	5	1.1%
CCOc1[nH]n(-c2ccccc2)c(=O)c1C=NCc1ccncc1	0.4	-2.6	-1	-1	-2	0.6%
O=C(c1cccc(F)c1)N1CCN(Cc2ccc3c(c2)OCO3)CC1	0.2	2.9	-15	-1	-4	-1.1%
CCN(c1ccc(Cl)cc1)S(=O)(=O)c1nnc(NC(=O)C2CCCCC2)s1	1.6	.	.	.	-15	16%
Cc1cc(C)c(NS(=O)(=O)c2ccc(-c3cnc(C4CC4)o3)cc2)c(C)c1	1.0	.	.	.	-3	3.0%
CC(O)CSc1nc2c(c(=O)n(C)c(=O)n2C)n1CCCc1ccccc1 (stereo unspecified)	1.3	-2.1	0	-15	8	1.7%
Cc1ccc(S(=O)(=O)NC(=O)C2(C)CCN2C(=O)Cc2ccc(-c3ccccc3)cc2)cc1 (stereo unspecified)	-0.7	4.9	5	-25	47	-0.4%
CC(=O)/C(C#N)=C1\NC(=O)C(Cc2ccccc2Cl)S1 (stereo unspecified)	0.5	-2.1	-1	3	-13	-1.4%
C=CCNc1cc(C)oc(=O)c1C(=O)CCC	4.2	-0.6	3	4	37	-0.5%[38.3 µM]

Structure	TRPML1 ag	D2 agonist	Six1-Eya2 blk	CtBP-E1A inh	TRPML1 inh	PINK1 expr mod
CCC1CCCCN1CCCNC(=O)c1ccc2c(c1)c(C)c(C)n2CC (stereo unspecified)	-0.5&0.7	-2.0	-23	-19	-14&-3	0.8%&-1.1%
Cc1ccc2nc(/C(C#N)=C\c3cc(O)ccc3[N+](=O)[O-])[nH]c2c1	1.1	7.3	-6	.	15	4.0%
CC(=O)c1ccc(NC(=O)c2sc(-n3nc(C)c(CCC(C)C)c3C)nc2C)cc1	-0.4	.	.	.	-26	-2.0%
Cc1csc(NC(=O)C2CCCN(S(=O)(=O)c3cccnc3)C2)n1 (stereo unspecified)	2.5	-2.5	8	5	16	-2.9%
COc1ccc(CCNC(=O)CCCn2c(=O)c3cccn3c3cccnc32)cc1OC	-0.5	.	.	.	1	6.5%
COc1ccc(OCC(O)CNC(=O)Nc2ccccc2)cc1 (stereo unspecified)	-0.2	1.0	2	6	-14	0.7%
N#CCSc1nnc(CNc2ccc(F)cc2)o1	-0.4	-1.1	1	4	-2	0.0%
Cc1nn(-c2ccccc2)c2[nH]c(=O)c(CNCc3ccc4c(c3)OCO4)cc12	0.0	-4.0	-4	-7	19	-1.2%
Cc1cccc(OCCCC(=O)Nc2ccc(S(=O)(=O)Nc3ncccn3)cc2)c1C	-0.5	5.4	-9	-1	-10	-0.9%
O=C(/C=C\c1ccc2c(c1)OCO2)CC1(O)C(=O)Nc2ccccc21 (stereo unspecified)	0.7	-2.9	6	6	10	13%

Structure	TRPML1 ag	D2 agonist	Six1-Eya2 blk	CtBP-E1A inh	TRPML1 inh	PINK1 expr mod
Cc1cccc(CSc2nnc(-c3ccccn3)n2N)c1	-0.3	0.0	-17	-20	0	6.6%[38.3 µM]
O=C1NC2(CCCC2)Oc2ccccc21	-1.0	-3.8	8	6	10	-0.2%
COc1c(Cl)cnn(-c2ccccc2)c1=O	-0.6	-1.1	10	13	0	?
CC(C)S(=O)(=O)c1cnc(-c2ccccn2)nc1N	0.6	-1.6	?	0	-1	0.2%
COc1ccc(NC(=O)C[C@H]2C(=O)N(C3CCCCC3)C[C@@H]2c2ccc(OC)cc2)cc1	-0.2	-7.7	-2	6	8	0.3%
CCOC(=O)c1ccc(NC(=O)CN2C(=O)CNC2=O)cc1	0.0	-1.1	-8	-5	3	6.6%[38.3 µM]
Cc1ccnn1-c1ccc(C(=O)NCC(c2ccco2)N2CCCC2)cc1 (stereo unspecified)	-0.1	-3.1	-2	-4	38	1.9%
O=C(Nc1ccc(C(=O)N2CCCC2)cc1)c1ccccc1	3.2	3.0	0	6	-7	-0.6%
O=C(C[n+]1cccc(O)c1)NCc1ccc(Cl)cc1	1.3	-0.8	7	-18	13	2.7%
CCCc1nnc(NC(=O)Cc2coc3ccc(C(C)C)cc23)s1	-0.7	.	.	.	16	0.5%

# Shown as a hit in CtBP-E1A inh (from the list above):
SMILES | D2 agonist | Six1-Eya2 blk | CtBP-E1A inh | TRPML1 inh | PINK1 expr mod
CCNC(=O)C(=O)N/N=C/c1cc([N+](=O)[O-])ccc1O | 0.5 | -92* | -94* | 5 | 1.1%

# Back to the main list; the three compounds before the break are reprinted first.
Structure	TRPML1 ag	D2 agonist	Six1-Eya2 blk	CtBP-E1A inh	TRPML1 inh	PINK1 expr mod
O=C(Nc1ccc(C(=O)N2CCCC2)cc1)c1ccccc1	3.2	3.0	0	6	-7	-0.6%
O=C(C[n+]1cccc(O)c1)NCc1ccc(Cl)cc1	1.3	-0.8	7	-18	13	2.7%
CCCc1nnc(NC(=O)Cc2coc3ccc(C(C)C)cc23)s1	-0.7	.	.	.	16	0.5%
CCCS(=O)(=O)NC(=O)C1(C)CCCN(C(=O)c2cncc(Br)c2)C1 (stereo unspecified)	-0.1	-2.6	-2	3	.	3.8%
CC(C)Cc1cc(C(=O)Nc2cccnc2)no1	-0.4	-2.3	0	1	14	0.9%
Cc1cccc(C)c1NC(=O)COC(=O)CCC(=O)c1cccs1	-1.1	-3.9	2	10	-7	2.4%
CCN(CC)S(=O)(=O)c1ccc(C)c(NC(=O)/C=C/c2cccs2)c1	0.6	0.4	-8	-15	13	2.6%
CC(C)Oc1cccc(C(=O)C2CCCN(C(=O)c3ccnn3C)C2)c1 (stereo unspecified)	0.7	-0.6	1	.	-6	-0.2%
COc1cc(C(=O)OCC(=O)NC(N)=O)cc(CN2C(=O)c3ccccc3C2=O)c1OC	0.6	-3.9	4	.	-6	0.8%
COC(=O)C1CN(C(=O)COc2ccc(C)cc2)c2ccccc2O1 (stereo unspecified)	-0.4	-1.4	7	5	29	0.6%
O=C(O)c1cccnc1Sc1ccccc1Cl	0.0	-1.1	9	6	15	1.1%
COc1ccccc1CN1CC(C(=O)NCc2ccc(C)c(F)c2)CCC1=O (stereo unspecified)	-0.5	0.4	-1	5	-3	-1.2%
COc1ccc(-c2ccnc(SCC(=O)N3CCN(c4ccccc4)CC3)n2)cc1	-0.8	-4.3	2	.	-16	4.2%

Structure	TRPML1 ag	D2 agonist	Six1-Eya2 blk	CtBP-E1A inh	TRPML1 inh	PINK1 expr mod
Cc1ccc(SCC(=O)NCCC2=CCCCC2)cc1	-0.1	-1.4	12	3	-4	-0.9%
CCn1c2ccccc2c2cc(NC(=O)c3cccc(OC)c3OC)ccc21	2.0	-2.9	23	22	9	11%
COc1ccc(C(=O)NCc2ccccc2C)cc1S(=O)(=O)NC1CCCC1	2.5	6.7	-1	0	-8	0.6%
CCCN1C2CCCC1CC(NC(=O)c1ccc(Br)cc1)C2 (stereo unspecified)	1.5	0.0	-15	-2	0	-0.4%
CN1CCN(C(=O)CN(C2CCCCC2)S(=O)(=O)c2ccc(Br)cc2)CC1	1.3	-3.6	1	4	-7	-2.3%
CCC(=O)c1ccc2ncccc2c1	0.6	-4.6	2	.	-8	-0.4%
Cn1c(SCC(N)=O)nnc1-c1cnccn1	0.9	0.6	1	.	2	-2.0%
[O-]/[N+](=C\c1ccccc1)c1ccc(Br)cc1	0.6	-2.5	1	.	7	0.8%
O=C(O)c1ccc(CSc2nnc(-c3ccccc3)n2-c2ccccc2)cc1	-0.2	-4.1	10	4	19	-0.2%
N#CC1(NC(=O)CN2C(=O)NC(c3ccccc3)(c3ccccc3)C2=O)CCCC1	2.6	7.9	-1	5	-8	0.9%

Structure	TRPML1 ag	D2 agonist	Six1-Eya2 blk	CtBP-E1A inh	TRPML1 inh	PINK1 expr mod
CC(C)c1nnc(NC(=O)Cc2ccccc2[N+](=O)[O-])s1	-0.1	-6.5	11	5	11	0.3%
O=C(COC(=O)COc1ccccc1)Nc1ncc(Cl)cc1Cl	0.9	1.2	0	-20	-4	-0.7%
CCN(C(=S)Nc1ccc(Oc2ccccc2)cc1)c1ccccc1	1.5	2.5	-7	-8	2	8.6%
CCOc1cccc2c1OC1(C)CC2NC(=O)N1c1cccc(C(=O)NCc2ccccn2)c1 (stereo unspecified)	1.0	-0.2	3	.	-2	3.8%
Cc1cc(C)c(S(=O)(=O)Nc2c(C)[nH]c(=O)[nH]c2=O)c(C)c1	-0.4	-1.8	-2	10	7	.
COc1ccc2c(-c3ccc(OCCN4CCOCC4)cc3)c(-c3ccccc3OC)sc2c1	0.9	13	-23	-28	24	1.2%
CCOC(=O)C1=NN(c2ccccc2)C2=NC(C)=C(C(=O)OC)C(c3ccc(C)cc3)N12 (stereo unspecified)	-0.3	-5.9	11	-21	4	2.8%
CCS(=O)(=O)NCC(c1ccco1)N1CCN(c2ccccc2)CC1 (stereo unspecified)	0.8&-1.0	-0.7	16	24	?	1.8%&2.4%
Cc1cccc(N2CCN(C(=O)c3ccc4ccccc4c3)CC2C)c1 (stereo unspecified)	1.8	-4.0	-19	-9	?	27%
CCOC(=O)C1CCCN(C(=O)C2CCN(S(=O)(=O)c3ccc(Cl)c(C(F)(F)F)c3)CC2)C1 (stereo unspecified)	3.1	0.0	-28	1	-11	-0.2%

Structure	TRPML1 ag	D2 agonist	Six1-Eya2 blk	CtBP-E1A inh	TRPML1 inh	PINK1 expr mod
Cc1oc2c(C)c3oc(=O)c(CC(=O)N4CCCCC4)c(C)c3cc2c1C	0.5	.	.	.	-8	0.9%
CCNC(=O)C1(C)CCN(C(=O)c2ccc(OC)cc2)C1 (stereo unspecified)	-0.2	-5.3	6	4	.	-0.3%
CC(C)c1ccc(NC(=O)COC(=O)c2nn(C)c(=O)c3ccccc23)cc1	2.6	-0.7	-1	13	-7	3.5%
COc1ccc(C=CC(=O)c2ccc(OCc3ccccc3)c(OC)c2)cc1OC	1.8	-1.0	3	-17	7	0.1%
C[C@@H]1CCCCO[C@@H](CN(C)C(=O)C2CCCCC2)[C@@H](C)CN([C@H](C)CO)C(=O)c2cc(NC(=O)NC3CCCCC3)ccc2O1	0.5	-0.7	12	-2	6	3.4%
Cc1ccc(Cn2nnnc2CN2CCC(c3nc4ccc(Cl)cc4[nH]3)CC2)cc1	1.3	-3.2	2	-24	13	?
CCOCCCNC(=O)c1ccc(-n2c(-c3ccccc3)cc3c2CCCC3)cc1	0.5	.	.	.	10	0.1%
CC(C)(C)C(=O)CNS(=O)(=O)c1ccc(S(=O)(=O)NC2CC2)cc1	0.1	-5.8	1	-1	-7	1.2%
CCCn1nnc(NC(=O)c2cccc(OCc3ccccc3)c2)n1	2.4	-3.2	18	0	-3	0.6%
Oc1cc(O)cc(-c2cc3ccc(O)cc3o2)c1	.	1.4	-16	-13	.	0.9%
COc1ccc(-c2nc3n(c(=O)c2C#N)CCS3)c(OC)c1	-0.6	-2.4	2	-7	27	0.5%
O=C(O)C1CCCCC1C(=O)Nc1cccc2ccccc12 (stereo unspecified)	-0.6	-2.1	0	1	-2	1.7%
